# Calb biofilm kill: mixture kills Candida albicans biofilm cells. C. albicans biofilm persisters + clotrimazole, fluorescence viability; primary screen in compound mixtures of four per well. inhibition, % at 7.6 µM. hit rate 0.02% among 120,000. AID 1242;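 active = inhibition above 30.3% in the primary screen of four-compound pools, then above 30% when the compound was retested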;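 note: compounds exposed to preformed 24 h biofilms for 48 h; the number belongs to the whole pool; some results filed as inactive read as strong as hits; inactives centre near 12; 0% = biofilm with clotrimazole alone and 100% = kill control; retested singly at about 60 µM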
#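 System: C. albicans CAF4-2 wild-type biofilms; Medium: RPMI/MOPS medium, pH 7.0; Reagent: Clotrimazole, 50 µg/mL; Times: biofilm formation 24 h, compound exposure 48 h, 37 °C; Detection: 2-h Alamar Blue fluorescence, 535/590 nm excitation/emission; Evaluation: percent inhibition of biofilm viability.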
# Active calls of the source: *. A portion of the library (hit frequency here may not be typical).
Structure,Calb biofilm kill
CCN(CC)C(CNS(=O)(=O)c1ccc(Cl)cc1)c1ccccc1 (configuration not stated),8.7
CC(=O)c1sc(NC(=O)c2ccccc2)nc1-c1ccccc1,1.4
COC(=O)Cc1csc(/N=C/c2c(O)n(-c3cccc(C(F)(F)F)c3)c(=O)c3ccccc23)n1,12.3
CC12CCC(C)(c3nc4ccccc4nc31)C2(C)C,19.6
CC(=O)Oc1c(C)c(OC(C)=O)c2c(c1C(C)=O)OC1CC(=O)C(C(C)=O)=C(O)C21C (configuration not stated),14.4
O=C(CCc1ccc(Oc2cc([N+](=O)[O-])cc([N+](=O)[O-])c2)cc1)N1CCCCCC1,8.0
Cc1cc(-c2ccccc2)nc(N(C)NC(=O)C2CC2)c1S(C)(=O)=O,0.4
CCOc1ccc(CN(C)CC(=O)Nc2ccc(N3CCOCC3)cc2)cc1OC,9.2
O=C(NC(=S)Nc1cc(S(=O)(=O)N2CCOCC2)ccc1N1CCOCC1)c1ccco1,19.7
CC(C)(C)OC(=O)[C@H](Cc1ccccc1)NC(=O)c1[nH]cnc1C(=O)Nc1cccc(Cl)c1,15.6
CCn1c(C(=O)N2CCCC(C(=O)NCCCc3ccccc3)C2)cc2sccc21 (configuration not stated),12.2
Cc1ccc2nc(-c3ccc(NC(=O)COC(=O)c4ccc(=O)[nH]c4)cc3)sc2c1,17.7
COc1ccccc1-n1c(C)nc2cc(C(=O)NCCN3CCOCC3)ccc21,20.1
Cc1ccc(NC(=S)NC(=O)c2ccc(Br)o2)c(C)c1,8.1
CCOc1ccccc1CN1CCN(Cc2ccc(C)o2)C(CCO)C1 (configuration not stated),1.7
CCN(CC)C(=O)CN(C#N)c1nc(Cl)nc(N(C)C)n1,30.3
CCN(CC)C(=O)C(=O)N/N=C/c1ccc(F)cc1,8.1
O=P(O)(CN1CCCCCC1)C1Cc2ccccc2C1,7.7
COC(=O)C1=C(N)Oc2cc(C)[nH]c(=O)c2C1c1ccc(Cl)cc1 (configuration not stated),25.8
CC(C)(C)NC(=O)c1cccc(NC(=O)Cc2cccs2)c1,2.0
Cc1ccc(-c2cc(-c3ccco3)c3c(N)c(C(=O)NN)oc3n2)cc1,7.3
Cc1ccc(C(O)(C(=O)NNS(=O)(=O)c2ccc(C)cc2)c2ccc(C)cc2)cc1,13.8
Cc1ccc(C)c(S(=O)(=O)N/N=C/c2cccnc2)c1,8.5
COc1cccc(NC(=S)N(CCCN2CCOCC2)C(C)c2cc3ccccc3o2)c1 (configuration not stated),4.1
COc1cccc(OC)c1C(=O)NC(=S)Nc1ccc2c(c1)C(=O)N(C)C2=O,11.4
COc1ccccc1NC(=O)c1ccc(NS(=O)(=O)c2ccc(F)c(F)c2F)cc1,21.0
Cc1cccc2cc(CN(Cc3ccc(F)cc3)C(=O)C(F)(F)F)c3nnnn3c12,12.2
Cc1cc(NC(=O)OC(C)C)ccc1-c1ccc(NC(=O)OC(C)C)cc1C,16.3
CCN(CC)C(=O)CC(c1ccc(N(C)C)cc1)c1c(O)cc(OC)cc1OC (configuration not stated),14.3
Cc1ccc(C)c(S(=O)(=O)Nc2ccccc2C(=O)Nc2ccc(S(=O)(=O)Nc3ncccn3)cc2)c1,11.6
CCC(NC(=O)/C(=C\c1ccc2c(c1)OCO2)NC(C)=O)C(=O)O (configuration not stated),19.4
CCS(=O)(=O)c1ccc2oc(SCC(=O)NCCc3ccc(F)cc3)nc2c1,11.0
O=C(Nc1ccccc1)N1CCc2ccccc21,-1.7
Cc1ccccc1OCc1n[nH]c(=S)n1-c1ccccc1,-7.7
COc1ccc(OC(C)c2nnc(N)s2)cc1 (configuration not stated),18.1
CCOC(=O)c1c(-c2ccccc2)csc1/N=C/C1C(=O)CCCC1=O,14.0
O=C(NC12CC3CC(CC(C3)C1)C2)N1CCN(C(=O)c2ccco2)CC1,5.7
Cc1ccc(NC(=O)c2sc(N)nc2-c2ccc([N+](=O)[O-])cc2)cc1C,19.6
Clc1ccc(/C(Cc2nc3ccccc3[nH]2)=N\Nc2ccccc2)cc1,9.0
COc1ccc(N2CCN(C(=O)c3cccc(Br)c3)CC2)c([N+](=O)[O-])c1,9.0
CC(C)C[C@H](NC(=O)c1[nH]cnc1C(=O)Nc1ccc(CNC(=O)OC(C)(C)C)cc1)C(=O)OC(C)(C)C,34.1
CC(=O)c1cccc(CN2CCN(C(C)C)C(CCO)C2)c1 (configuration not stated),11.0
NC(=O)COc1ccc(-n2cnnn2)cc1,-1.3
O=C(CSc1n[nH]c(-c2cccnc2)n1)Nc1ccccc1,2.1
Cc1ccc(-c2n[nH]c(=S)n2/N=C/c2c(C)[nH]n(-c3ccccc3)c2=O)cc1,-0.9
COc1ccc(CNCc2c(C(=O)N(C)C)nc3ccc(Cl)cn23)c(OC)c1,18.7
Cc1csc(NC(=O)Cn2nc(C)c([N+](=O)[O-])c2C)n1,3.4
O=S(=O)(/N=C(\c1ccccc1)N1CCOCC1)c1ccc(Cl)cc1,-4.3
Cn1c(CCC(=O)Nc2ccccc2F)nnc1SCC(=O)Nc1ccccc1Cl,16.0
CCC(C(=O)NCCC1=CCCCC1)c1ccccc1 (configuration not stated),16.9
C/C(=N\NC(=S)NC(C)C)c1ccccc1,17.5
CC(C)c1nc2sc3ccccc3c(=O)c2c(=O)n1Cc1ccccc1,19.3
Cc1ccc(C(=O)N/N=C2\CCSC2)cc1[N+](=O)[O-],1.0
Cc1ccccc1C(=O)N1CCc2cc(-c3nc(NC(=O)Cc4ccc5c(c4)OCO5)sc3C)ccc21,10.2
CC(O)[C@H]1CNC(=O)C(=O)N1CCCCC1CCCCC1 (some centres not stated),7.7
O=c1ccn(CCCBr)c(=O)[nH]1,16.7
NC(=O)c1nn(CC(=O)Nc2ccc3c(c2)OCO3)cc1[N+](=O)[O-],21.2
O=C(CCc1nc2ccccc2c(=O)[nH]1)OCc1ccccc1F,5.2
COc1cccc(NC(=O)NCc2c(-c3ccccc3)noc2C)c1,13.0
O=C(Cc1c(C(=O)O)[nH]c2ccccc12)NC1CCCC1,1.0

# An excerpt of these results, as labelled records:
COc1ccc(OC(C)c2nnc(N)s2)cc1 (configuration not stated)
  Calb biofilm kill: 18.1
CCOC(=O)c1c(-c2ccccc2)csc1/N=C/C1C(=O)CCCC1=O
  Calb biofilm kill: 14.0
O=C(NC12CC3CC(CC(C3)C1)C2)N1CCN(C(=O)c2ccco2)CC1
  Calb biofilm kill: 5.7
Cc1ccc(NC(=O)c2sc(N)nc2-c2ccc([N+](=O)[O-])cc2)cc1C
  Calb biofilm kill: 19.6

# (next part)
Structure,Calb biofilm kill
CC(C)NC(=S)Nc1ccc2[nH]c(=O)[nH]c2c1,0.8
CC(C)(C)c1ccc(/C=N/n2cnnc2)cc1,16.4
N#Cc1cc(C(=O)Cc2ccccc2)c[nH]1,3.2
NC(=Nc1ccc(Cl)cc1)c1ccccc1,19.0
COc1ccccc1CNC(=O)c1n[nH]c2ccccc12,7.9
O=C(COC(=O)[C@@H]1CC(O)CN1S(=O)(=O)c1ccccc1[N+](=O)[O-])Nc1ccc2ccccc2c1 (some centres not stated),10.1
CC1=Nc2ccccc2N=C(NC(=O)CSC(=S)N2CCCCC2)C1c1ccccc1 (configuration not stated),3.5
NC(=O)COC(=O)c1ccc(Cl)c(S(=O)(=O)N2CCCCCC2)c1,12.1
O=C(NCc1nc2ccccc2[nH]1)C1=C[C@H](C2CCCCC2)C[C@H](OCc2ccc(CO)cc2)O1,19.3
COc1cccc(C2CC(c3ccc(Br)cc3)=NN2C(=O)c2ccncc2)c1OC (configuration not stated),13.0
CCCS(=O)(=O)c1c(S(=O)(=O)CCC)c2ccc(C(N)=O)cn2c1C(=O)c1ccc(F)cc1,19.9
C=CCn1c(SCC(=O)NC(=O)NC2CCCC2)nnc1C1CCCCC1,6.4
CCN(CC)C(=O)Cc1c(O)c2ccccc2[nH]c1=O,24.5
FC(F)(F)c1ccc(Oc2ccc3ccccc3c2Br)nc1,-1.2
Cc1cccc(N2CN(Cc3ccco3)CNC2=S)c1C,13.8
CC(C)(C)NC(=O)c1nc2nc(-c3ccccc3)cc(C(F)(F)F)n2n1,12.1
O=C(CCc1nc2ccccc2c(=O)[nH]1)Nc1ccc(F)cc1,10.7
Cc1nn(CC(=O)NC2C(=O)N3C(C(=O)O)=C(CSc4nnnn4C)CSC23)cc1Br (configuration not stated),14.6
CC(C)CNC(=S)NC(=O)c1ccc(Cl)cc1,-2.5
O=C(N/N=C/c1ccco1)c1cc(-c2ccc(Cl)s2)[nH]n1,9.5

# Reformatted with each value named: part of the list above.
> CCCS(=O)(=O)c1c(S(=O)(=O)CCC)c2ccc(C(N)=O)cn2c1C(=O)c1ccc(F)cc1
  Calb biofilm kill: 19.9
> O=C(COC(=O)[C@@H]1CC(O)CN1S(=O)(=O)c1ccccc1[N+](=O)[O-])Nc1ccc2ccccc2c1 (some centres not stated)
  Calb biofilm kill: 10.1

# Next section.
Structure,Calb biofilm kill
O=C(CN1CC[C@@]2(O)CCCC[C@H]2[C@@H]1c1ccc(F)cc1)NCc1ccco1,16.6
Cc1ccc(C)c(NC(=S)NCc2ccc3[nH]c4c(c3c2)CCCC4)c1,0.5
N=C1C(=O)OCC1c1ccccc1NC(=O)CN1CCOCC1 (configuration not stated),9.0
C=CCOc1ccc(C=Nc2ccc(Cl)cc2)c(O)c1,17.6
C=CCc1ccc(OCCCCOc2ccc(C(=O)O)cc2)c(OC)c1,-0.1
COc1cc(C(=O)N[C@H](C(=O)Nc2nnc(C3CC3)s2)C(C)C)cc(OC)c1OC,15.5
CC(=O)COc1ncnc2c(Cl)cc(Cl)cc12,5.8
CCOc1ccccc1NC(=O)C(OC(=O)c1ccc(N(C)C)cc1)c1ccccc1 (configuration not stated),12.9
CCc1nc(C)cc2c1sc1ccccc12,17.5
O=C(c1c(F)cccc1F)N1CCN=C1SCc1ccccc1,28.6
Cc1cc(C)c2nc(Cl)c(Cl)nc2c1,8.8
Cc1nc2cc(NS(=O)(=O)c3ccc(Br)cc3)ccc2n1C,8.4
CCOC(=O)c1ccc2ncc(-c3ccccc3)nc2c1,12.8
CCCCC1=CC2=C(c3ccco3)C(=O)C(C)(OC(=O)c3ccc(OC)cc3)C(=O)C2=CN1Cc1ccc(OC)cc1 (configuration not stated),14.8
NC(N)=Nc1nc2ccc([N+](=O)[O-])cc2[nH]1,15.3
C/C(N)=C(/C#N)C(=O)CSc1nncn1-c1ccccc1,15.1
Cn1c(=O)c(C(=O)COC(=O)c2cc(-c3ccco3)nc3ccccc23)c(N)n(CC2CC2)c1=O,1.6
O=C(NNc1nc2c(F)cc(F)cc2s1)c1ccccc1,11.1
O=C(CSc1oc(-c2ccco2)nc1S(=O)(=O)c1ccc(F)cc1)NCC1CCCO1 (configuration not stated),13.2
CCCCNC(=O)c1cc2ccccc2s1,9.9

# Other entries
SMILES | Calb biofilm kill
O=C(Cc1ccc(-n2cccc2)cc1)NC1CCCCCC1 | 4.0
COc1ccc(N=c2cc(-c3ccc(O)cc3)oc3ccccc23)cc1 | 8.7
c1cncc(-c2nc(NCc3cccs3)c3ccccc3n2)c1 | 15.4
Cc1ccc2nc(C)cc(Nc3ccc([N+](=O)[O-])cc3)c2c1 | 15.5
COc1ccccc1NC(=O)Nc1cc(F)ccc1F | 12.3
O=C(COC(=O)c1ccc(NS(=O)(=O)c2cccs2)cc1)NCC1CCCO1 (configuration not stated) | 13.5
CC(=O)NCCn1c(SCc2cccc([N+](=O)[O-])c2)nc2ccccc2c1=O | 17.2
CC(C)n1c(C(F)(F)F)nc2cc(C(=O)N3CCC(O)CC3)ccc21 | 15.7
COC(=O)/C(C#N)=C/c1occc1C | 13.1
O=C(Cn1nc(C(F)(F)F)c2c1CCC2)NCc1ccc(Cl)cc1 | 7.8
CCCCNC(=O)COc1ccccc1C(=O)c1cc(C#N)c(=O)n(CCOC)c1 | 8.0
Cc1ccc(S(=O)(=O)N2CCOCC2)cc1NC(=O)c1cc(-c2ccccn2)nc2ccccc12 | 17.5
CCOC(=O)N1CCc2c(sc3c2c(=O)n(Cc2ccccc2)c(=O)n3Cc2cccc(C)c2)C1 | 16.2
Cc1ccc(Nc2nc(N/N=C\c3ccc4c(c3)OCO4)nc(N3CCOCC3)n2)cc1 | 12.2
O=C(NCc1ccncc1)/C(=C\c1ccc(F)cc1)NC(=O)c1ccccc1 | 14.2
Nc1nc(-c2ccc(Cl)cc2)nn1C(=O)c1ccco1 | 26.6
COc1cc(/C=N/Nc2ccc(F)cc2F)cc(OC)c1O | 12.1
C#CCOCCOCCOCCNc1nc(N2CCN(C(=O)[C@H]([C@@H](C)CC)n3cc([C@@H](N)CC(C)C)nn3)CC2)nc(N2CCN(C(=O)[C@H]([C@@H](C)CC)n3cc([C@@H](N)CC(C)C)nn3)CC2)n1 | 19.3
Cc1nn2c(Nc3ccccc3)c3c(nc2c1-c1ccccc1)CCC3 | 14.3
COC(=O)CCN1CCN(S(=O)(=O)c2ccccc2Br)CC1 | 1.9
N=c1ccn(Cc2ccc(F)cc2)cc1 | 24.1
CN(C)C(=S)Nc1ccc(Br)c(Cl)c1 | 5.3
c1cncc(-c2nc(NCCCN3CCOCC3)c3c4c(sc3n2)CCC4)c1 | 13.1
O=C(O)CCC(=O)Nc1ccccc1C(=O)NCCc1ccccc1 | -0.2
CCn1c(O)c(C=NC2CCCC(C)C2C)sc1=S (configuration not stated) | 18.8
Cc1cc(C)cc(NC(=O)C(OC(=O)c2sccc2C)c2ccccc2)c1 (configuration not stated) | 15.1
COCC(C)n1c(C)cc(C(=O)CSc2nc(C)c(C)c(C)n2)c1C (configuration not stated) | 32.6
CCNc1nc(Oc2ccc(C(=O)OC)cc2)nc(N2CCOCC2)n1 | 10.7
COc1ccc(NC(=O)c2ccc(Cl)c(NC(=O)c3ccncc3)c2)cc1 | 25.2
CNC(=O)c1nnsc1S(=O)c1ccc(Cl)cc1 (configuration not stated) | 5.8

# Screening results (PubChem)
